# From PubChem
# miR-21 FLuc: miR-21 reporter, rising signal. HeLa miR-21 FLuc reporter, luciferase, 48 h. Potency, µM (doses to about 38.3 µM), for inactives: at the highest dose reporter change, positive = more light. 340,000 tested, under 10 active. AID 2288; active = well fitted rising curve with a large enough effect; inconclusive = small, poorly fitted or top-dose-only effect; inactive = no such curve, though single readings can be large or run the other way;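 note: % of control where 0% means no effect; miR-21 action dims this reporter so a rising signal means less miR-21 action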
#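 HeLa miR-21-FLuc reporter line, endogenous miR-21; 2000 cells/well in DMEM/10% FBS; compound titration up to ~40uM final, 48 h, 37 degree Celsius; luciferase detection reagent, 15 min lysis, CCD luminescence.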
# GLA inh pH 4.5: blocks human alpha-galactosidase A at pH 4.5 | P06280 | purified enzyme, 4-MU-alpha-Gal fluorescence, pH 4.5 | activity change, negative = inhibition, % at 105 µM | 230,000 tested, under 10 active | AID 1467; inconclusive = small, poorly fitted or top-dose-only inhibition, or a rising curve; inactive = flat fitted curve, though single readings scatter; no compound was filed as active;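 note: 0% = full activity with enzyme and -100% = basal without enzyme; dose as in the result columns while the protocol names 77 µM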
# Rango release inh: prevents RanGTP from dissociating the Rango-importin beta complex | O95149+P62826 | Biochemical FRET Rango-importin beta, RanGTP-induced dissociation | Potency, µM (titrated, usually from 46.1 µM), inactives show at the highest dose activity change, negative = inhibition | 340,000 compounds, 0.071% hits | AID 540253; active means falling FRET ratio curve, often poorly fitted, with flat reads before Ran was added; inconclusive means other falling curves, or compound fluorescence or quenching; inactive means flat or rising ratio curve;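 note: potency is the fitted concentration of half-maximal effect; % of control where 0% means no effect; nearly all actives have a fitted effect of over 45% in size; -100% = wells without RanGTP and RCC1; the record marks most hits as doubtful in a second field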
#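 Rango/importin beta premix (0.1/0.25 uM final), PBS + 1 mM DTT + 0.02% Tween-20 + 0.1% BSA; cpd 5 min RT; FRET pre-read; + RanGTP-RCC1 (0.6 uM Ran, 2 mM GTP, 0.2 uM RCC1); 45 min RT; FRET post-read, ex 430, em 486/530 nm.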
# Rango complex inh: inhibitors of Rango-importin beta complex formation | Q14974 | Rango CFP/YFP FRET sensor + importin beta, 45 min | Potency, µM (doses to about 92.2 µM), without a hit: at the highest dose inhibition of complex formation | 340,000 compounds, 0.031% hits; active = rising FRET ratio curve, often small or poorly fitted; inconclusive = mostly compound fluorescence or quenching in the first reads; inactive = flat curves in all reads;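 note: potency is the fitted concentration of half-maximal effect; 0% = DMSO wells and 100% = buffer wells lacking importin beta; nearly all actives have a fitted effect of over 15% in size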
# Target sequence (Q14974 whole entry, looked up): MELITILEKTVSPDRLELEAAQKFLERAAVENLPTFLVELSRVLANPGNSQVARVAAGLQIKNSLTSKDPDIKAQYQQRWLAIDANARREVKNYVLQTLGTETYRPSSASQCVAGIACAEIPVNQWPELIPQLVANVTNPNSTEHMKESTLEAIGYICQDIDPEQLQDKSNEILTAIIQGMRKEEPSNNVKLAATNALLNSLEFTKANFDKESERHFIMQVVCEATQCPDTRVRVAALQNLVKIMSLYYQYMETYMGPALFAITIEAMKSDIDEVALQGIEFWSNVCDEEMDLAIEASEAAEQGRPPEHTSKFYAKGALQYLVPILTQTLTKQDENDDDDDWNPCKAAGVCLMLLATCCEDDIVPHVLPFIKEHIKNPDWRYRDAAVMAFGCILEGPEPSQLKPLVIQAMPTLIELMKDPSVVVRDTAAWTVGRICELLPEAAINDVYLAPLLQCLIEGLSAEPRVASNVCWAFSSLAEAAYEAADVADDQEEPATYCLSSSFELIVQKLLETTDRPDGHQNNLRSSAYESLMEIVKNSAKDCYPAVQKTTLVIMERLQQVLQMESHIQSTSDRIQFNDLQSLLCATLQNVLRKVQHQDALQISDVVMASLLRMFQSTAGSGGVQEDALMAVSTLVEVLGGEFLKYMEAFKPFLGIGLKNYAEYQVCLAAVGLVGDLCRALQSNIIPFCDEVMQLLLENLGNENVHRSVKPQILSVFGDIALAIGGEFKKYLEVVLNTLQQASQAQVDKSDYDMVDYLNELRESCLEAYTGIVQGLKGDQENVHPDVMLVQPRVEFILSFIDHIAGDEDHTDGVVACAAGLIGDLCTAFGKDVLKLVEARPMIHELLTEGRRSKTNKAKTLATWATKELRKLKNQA
#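 Inhibition scored from the CFP 486 nm/YFP 530 nm FRET ratio 45 min after adding 0.125 microM importin beta to 50 nM Rango biosensor preincubated 5 min with compound (room temperature, PBS with DTT, Tween-20, BSA). No-importin wells as positive control.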
# An asterisk follows results filed as active; ? = inconclusive; . = no result given; & = joins results of further samples. A portion of the library; the hit share may differ from the screen's.
SMILES,miR-21 FLuc,GLA inh pH 4.5,Rango release inh,Rango complex inh
CC(C)(C)c1ccc2c(c1)N(CC(=O)O)C(=O)CO2,-7%,0,-4%,2.5%
CCOc1cc(NC(=O)C2CC2)c(OCC)cc1NC(=O)c1ccccc1OCC,1%,.,-1%,-0.3%
COc1ccc(-c2ccc3c(c2)C2CC3CCN2Cc2ccc(OC(F)(F)F)cc2)cc1 (stereo not given),.,.,-13%,0.6%
O=c1[nH]c(/C=C\c2ccc(O)c(O)c2)nc(O)c1[N+](=O)[O-],0%,.,7%,2.2%
NC(=N\N=Cc1ccccc1)/C(N)=N/N=Cc1ccccc1,.,.,1%,0.8%
CC(C)Nc1nc(NC(C)(C)C)nc(Oc2ccc(=O)n(-c3ccccc3)n2)n1,-8%,0,3%,2.6%
COc1ccc(-c2nn(C)c(=O)[nH]2)cc1,-4%,-12,24%,1.0%
CCNC(=S)N(CCc1ccc(OC)c(OC)c1)Cc1cc2cc(OC)ccc2[nH]c1=O,-3%,-10,-4%,-6.3%
Cc1ccc2c(c1)N(CCC(=O)NC1CC1)C(=O)C(C)O2 (stereo not given),1%,-19,8%,1.3%
COc1ccc(CN2CCNC(=O)C2CC(=O)N(C)CC2CCOCC2)cc1OC (stereo not given),-6%,.,21%,-2.7%
C=CCOC(Cn1ccnc1)c1ccc(Cl)cc1Cl (stereo not given),.,.,-9%,2.6%
COc1ccc(/C=C/C(=O)OCC(=O)Nc2cc3oc4ccccc4c3cc2OC)cc1,-4%,7,.,.

# Compound profiles, from the list above:
# `CC(C)(C)c1ccc2c(c1)N(CC(=O)O)C(=O)CO2` across the screens: miR-21 FLuc = -7%; GLA inh pH 4.5 = 0; Rango release inh = -4%; Rango complex inh = 2.5%
# `NC(=N\N=Cc1ccccc1)/C(N)=N/N=Cc1ccccc1` across the screens: miR-21 FLuc = .; GLA inh pH 4.5 = .; Rango release inh = 1%; Rango complex inh = 0.8%

# Looked up above.
# Rango release inh with COc1ccc(-c2nn(C)c(=O)[nH]2)cc1 → 24%
# GLA inh pH 4.5 with COc1ccc(/C=C/C(=O)OCC(=O)Nc2cc3oc4ccccc4c3cc2OC)cc1 → 7
# miR-21 FLuc with CC(C)Nc1nc(NC(C)(C)C)nc(Oc2ccc(=O)n(-c3ccccc3)n2)n1 → -8%
# GLA inh pH 4.5 with CCNC(=S)N(CCc1ccc(OC)c(OC)c1)Cc1cc2cc(OC)ccc2[nH]c1=O → -10

# Additional records
SMILES,miR-21 FLuc,GLA inh pH 4.5,Rango release inh,Rango complex inh
Cc1ccc(NC(=O)COc2ncnc3sccc23)cc1S(=O)(=O)N(C)C,-1%,0,18%,0.5%
CCC1CCCCN1C(=O)c1ccc2nc(Cc3ccc(OC)cc3)oc2c1 (stereo not given),-45%,.,9%,-3.2%
COC(=O)c1ccc(C23CC4(C2)[C@H](CN(C)[C@@H]4c2ccccc2)C3c2ccc(Cl)nc2)cc1 (stereo not given in full),0%,-5&-7,7%,0.2%
Cc1ccc(C(=O)N2N=C(c3ccc(Br)cc3)CC2c2ccccc2O)cc1 (stereo not given),-9%,.,-10%,-0.4%
CCC(C(=O)Nc1ccc([N+](=O)[O-])cn1)c1ccccc1 (stereo not given),15%,.,-1%,-0.7%
Cc1ccc(-n2nc(-c3ccco3)cc2C(=O)O)c(C)c1,-1%,7,0%,?
CN(C)c1ccc(NC(=O)c2cccc(N3C(=O)CCC3=O)c2)cc1,-2%,4,31%,2.5%
Cc1ccc(NC(=O)C(CC(C)C)NC(N)=O)cc1 (stereo not given),-2%,1,5%,0.1%
N=C1c2ccccc2CN1c1ccc(S(=O)(=O)N2CCCCC2)cc1,2%,2,6%,-1.5%
COc1ccc(CCNC(=O)c2ccc(SC)cc2OC)cc1,-3%,4,-5%,2.0%
CN(C)c1nc(Oc2ccc(OCCOc3ccccc3)nn2)nc(N(C)C)n1,-9%,1,-6%,-2.4%
COc1ccc(CN(C)CCc2ccccn2)cc1OC,-5%,-8,-2%,1.2%
O=C(NCc1ccccn1)c1c(Cl)cccc1Cl,-7%,5,2%,-2.6%
COc1ccc(NC(C)=O)cc1NC(=O)C1CCN(C(=O)Nc2ccccc2)CC1,.,.,29%,-2.4%
CC(=O)Nc1c(F)c(F)c(F)c(F)c1F,3%,.,-6%,0.1%
CC(=O)NC12CC3CC(C1)CC(C(=O)OCC(=O)Nc1c(F)cccc1F)(C3)C2,.,.,1%,-6.6%
Cc1ccc2nc(C)c(C(=O)N/N=C/c3ccco3)cc2c1,-6%,-6,-4%,1.7%
COC(=O)C1=C(C)NC2=C(C(=O)c3ccccc32)C1c1cccc(OC)c1 (stereo not given),-2%,3,14%,1.0%
CCN1CCN(C(=O)c2cc(-c3ccc(Cl)s3)nc3ccccc23)CC1,4%,.,1%,2.1%
CSc1ccc(CN2CCCC(CO)(Cc3ccccc3)C2)cc1 (stereo not given),0%,-1,-5%,-1.6%
O=C(Nc1c2c(nn1-c1ccccc1)CS(=O)(=O)C2)C1CCCC1,0%,.,-5%,3.2%
O=C1c2ccccc2-c2cccc(C(=O)N3CCCCCC3)c21,-9%,-3,2%,-0.1%
O=C(O)CCNS(=O)(=O)c1cccc(Br)c1,5%,3,2%,-2.9%
Nc1nonc1-n1nnc(C(=O)N/N=C/c2ccc(Cl)cc2Cl)c1CN1CCOCC1,-3%,.,30%,-4.9%

# Ordered by SMILES length (high to low): 3 of the compounds above.
SMILES,miR-21 FLuc,GLA inh pH 4.5,Rango release inh,Rango complex inh
O=C1c2ccccc2-c2cccc(C(=O)N3CCCCCC3)c21,-9%,-3,2%,-0.1%
O=C(O)CCNS(=O)(=O)c1cccc(Br)c1,5%,3,2%,-2.9%
O=C(NCc1ccccn1)c1c(Cl)cccc1Cl,-7%,5,2%,-2.6%

# Additional structures follow:
SMILES,miR-21 FLuc,GLA inh pH 4.5,Rango release inh,Rango complex inh
COc1ccc(NC2CCCN(C(=O)CCc3ccccc3F)C2)cc1 (stereo not given),-1%,.,-17%,-0.6%
C[C@H]1CN(S(=O)C(C)(C)C)[C@H](CCO)/C1=C\c1ccccc1 (stereo not given in full),.,.,1%,0.9%
CCOc1ncnc2c1oc1nc(CC(C)C)c3c(c12)CC(C)(C)OC3,-4%,12,1%,9.8%
Cc1cc2oc(=O)cc(CN(C)Cc3ccccc3)c2cc1C(C)C,-26%,.,-4%,-3.2%
CC(NC(=O)c1ccccc1F)C1CC1 (stereo not given),-1%,.,12%,-4.8%
CN(C)c1nc(Nc2ccc(F)cc2)nc(Oc2ccc(F)cc2)n1,9%,.,13%,2.5%
CCC1Oc2ccc(C)cc2N(CC(=O)N2CCN(c3ccc(F)cc3)CC2)C1=O (stereo not given),-3%,-7,20%,-3.6%
CC1CCCCC1NC(=O)CSc1nnc(CC(=O)Nc2ccccc2F)n1C (stereo not given),1%,.,2%,0.7%
CCc1nc(N)c(C#N)c(-c2cccnc2)c1C,2%,11,-7%,2.6%
O=C1C=C(O)CC(c2ccc(Cl)cc2)C1 (stereo not given),-8%,1,4%,-1.4%
Cc1ccccc1NC(=O)Cn1nnc2c(cnn2-c2ccc(F)cc2)c1=O,-1%,5,-17%,2.2%
O=c1oc2ccccc2c(Nc2cc3ccccc3cc2O)c1[N+](=O)[O-],-14%,-8,-1%,-1.9%
COc1nc(-c2ccc(Cl)cc2Cl)nc2ccccc12,-2%,.,2%,4.2%
Cc1ccc(C(C)C)c(OCC(=O)NN=C2CCCCCCC2)c1,20%,1,1%,?
Cc1ccc(NC(=O)[C@H](C)NC(=O)C2CCN(C(=O)[C@@H](NC(=O)OC(C)(C)C)C(C)C)CC2)cc1,0%,.,31%,1.1%
COc1ccc(NC(=O)[C@@H]2CC=C[C@@H]3CCN(Cc4ccc(Cl)c(Cl)c4)C(=O)[C@@H]32)cc1,.,.,10%,-0.3%
CC(=O)N/C(=C/c1ccc2c(c1)OCO2)C(=O)NCCCO,-7%,3,8%,-3.2%
COc1ccc(C(CNC(=O)c2cccc(Br)c2)N2CCCC2)cc1 (stereo not given),0%,-5,-11%,0.2%
CCCCn1c(N)c(N(CC(C)C)C(=O)CCCc2nc3ccccc3c(=O)[nH]2)c(=O)[nH]c1=O,.,.,4%,-3.7%
CC(Sc1nnc(CN2CCCC2)n1Cc1ccccc1)C(=O)Nc1ccc(F)cc1 (stereo not given),-1%,.,-8%,0.1%
Cc1cc(C(=O)CSc2nnc(-c3ccc(Cl)cc3)n2CC2CCCO2)c(C)n1C (stereo not given),-3%,3,0%,0.3%
CCCc1c2c(cc3c(=O)cc(C(=O)OCC)oc13)CCCC2,0%,.,8%,-0.1%
CNC(=O)c1cc(-c2ccc(Cl)cc2)n(-c2ccccc2)n1,0%,.,33%,0.8%
CN(C)S(=O)(=O)n1cc(/C=C(\NC(=O)c2ccccc2Cl)C(=O)N2CCOCC2)c2ccccc21,1%,.,1%,4.5%
CCOc1cc(/C=C2\C(=O)ON=C2c2ccccc2)ccc1OC,-14%,.,-17%,-0.6%
Cc1ccc(S(=O)(=O)/N=C2/NC(=O)/C(=C/c3cccnc3)S2)cc1,-5%,-2,5%,0.4%
Cc1cc(=O)[nH]c(CN2CCOCC2)n1,-2%,8,26%,5.3%
Cc1ccccc1OCC(=O)Nc1ccc(NC(=O)c2ccco2)cc1,-9%,-1,2%,0.4%
CN(C)CCCN(C(=O)c1ccco1)c1nc2ccc(Br)cc2s1,-7%,6,-12%,-2.4%
COc1cc(S(=O)(=O)N2CCn3cccc3C2C)ccc1NC(C)=O (stereo not given),.,.,-10%,-0.4%
CC1CCCC(NC(=O)NC(=O)COC(=O)C2=NN(c3ccccc3)C(=O)CC2)C1C (stereo not given),.,.,3%,-5.4%
C=CCNC(=O)C1CCN(c2c([N+](=O)[O-])cc(C(F)(F)F)cc2[N+](=O)[O-])CC1,-3%,-1,13%,-0.2%
COc1ccc(OC(=O)C(C)N2C(=O)c3ccccc3C2=O)cc1 (stereo not given),-6%,.,-13%,-3.3%
CC1(NC(=O)CC[N+](C)(C)CCO)CS(=O)(=O)CC1S(=O)(=O)[O-] (stereo not given),-9%,-9,.,.
Cc1ccc(F)cc1NS(=O)(=O)c1ccc(Cl)s1,.,.,-4%,0.7%
N#C/C(=C\c1cccc([N+](=O)[O-])c1)c1ccccn1,-16%,8,1%,1.2%
CCCCn1c(N)c(N(CC(C)C)C(=O)COC(=O)c2ccccc2NCCO)c(=O)[nH]c1=O,.,.,-13%,?
CCn1cc(CNC(=O)CCSc2nc(-c3ccco3)cc(C(F)(F)F)n2)cn1,20%,-10,8%,3.4%
CCC1SC(CC)C(=O)N(CC(=O)NCCc2ccccc2)C1=O (stereo not given),0%,-6,7%,1.8%
COc1cc(C2N(c3ccccc3)CCN2c2ccccc2)cc(OC)c1OC,-10%,-5,9%,2.8%
O=C(c1cccnc1)N1CCN(c2ccc3ccccc3n2)CC1,3%,-5,0%,-4.8%
Cc1ccc(NC(=O)C(C)OC(=O)c2ccc(NS(=O)(=O)c3ccc(F)c(F)c3)cc2)cc1 (stereo not given),11%,-4,17%,-0.2%
Cc1cc(=O)n2c3ccccc3n(CC(O)CN3CCN(CCO)CC3)c2c1C#N (stereo not given),0%,7,-1%,4.7%
O=C(CN1CCN(S(=O)(=O)c2ccc(F)cc2)CC1)Nc1cc(C(F)(F)F)ccc1Cl,-4%,-2,4%,-0.2%
CC1CN(C2CCCCC2)C(=S)N(c2ccccc2)C1=O (stereo not given),.,.,-4%,0.5%
CC1CCN(c2nnc(-c3ccccc3)c3ccccc23)CC1,-11%,4,4%,-0.7%
FC(F)(Cl)c1nnc2ccc(Sc3ccccn3)nn12,7%,-10,-8%,-0.4%
CC(C)c1ccc(/C=N/NC(=O)c2nnn(-c3nonc3N)c2CN2CCOCC2)cc1,0%,.,-9%,3.5%
COc1ccccc1N1CCN(CC(=O)Nc2ccc(CN3CCCCC3)cc2)CC1,-2%,1,10%,-5.5%
Cc1ccc(Cl)cc1NC(=O)c1ccccc1OCC(=O)N1CCOCC1,0%,.,17%,2.9%
COCCNC(=O)c1c(NC(=O)c2nc(SC)ncc2Cl)sc2c1CCCC2,-1%,3,?,-1.0%
CCCc1nc(SCc2ccccc2Cl)n[nH]1,-20%,-8,3%,0.3%
